MLL AF4-AF9 inh: inhibitors of human MLL-AF4/AF9 interaction | P42568 | AlphaScreen, biotin-AF4 peptide binding to FLAG-AF9 | inhibition, % at 10 µM | hit rate 0.47% among 350,000 | AID 651704;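 active = every replicate reaching a set inhibition limit, whatever the replicate mean, cut at about 25% in these data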;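 note: 0% = plate neutral control median and 100% = total signal loss; the record names both 10 and 1 µM as test concentration; the first replicate is given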
Target sequence (P42568 whole entry, looked up): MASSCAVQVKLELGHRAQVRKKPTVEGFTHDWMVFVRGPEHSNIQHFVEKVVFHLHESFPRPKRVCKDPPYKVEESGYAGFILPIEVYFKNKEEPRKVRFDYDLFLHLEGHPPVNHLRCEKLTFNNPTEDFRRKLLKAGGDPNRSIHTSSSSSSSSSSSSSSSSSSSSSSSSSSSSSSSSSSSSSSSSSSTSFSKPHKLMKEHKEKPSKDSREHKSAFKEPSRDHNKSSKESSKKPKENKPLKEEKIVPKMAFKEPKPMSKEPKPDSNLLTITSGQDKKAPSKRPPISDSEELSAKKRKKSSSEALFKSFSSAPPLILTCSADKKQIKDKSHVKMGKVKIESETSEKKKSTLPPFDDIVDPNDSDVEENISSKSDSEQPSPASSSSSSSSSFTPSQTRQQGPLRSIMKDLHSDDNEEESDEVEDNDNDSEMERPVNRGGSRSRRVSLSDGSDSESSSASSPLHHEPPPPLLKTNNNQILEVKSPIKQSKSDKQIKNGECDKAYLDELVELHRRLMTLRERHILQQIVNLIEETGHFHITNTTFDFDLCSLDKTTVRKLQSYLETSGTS
rRNA inh HTS: selective bacterial rRNA inhibition in E. coli; GFP signal change (wild-type ribosome), % (concentration not given with the values); hit rate 1.6% among 350,000; E. coli WT GFP vs humanized-ribosome RFP mutants, fluorescence, 24 h; stronger effect = lower value; DMSO median 0, no signal -100;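 active = significant combined selectivity score with lowered wild-type GFP, culture density cut under 30%, mutant RFP and density less affected; inactive = any of these conditions unmet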; note: one replicate is shown; some compounds called inactive have numbers as strong as hits
rRNA inh HTS OD600: further read-out of rRNA inh HTS, marked with its call; OD600 change, %; measured here: OD600 growth;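 optical density of the mix in the first replicate; 0 = DMSO median and -100 = no signal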
rRNA inh HTS RFP: recorded beside rRNA inh HTS, whose call it bears; RFP signal change, %; measured here: RFP humanized mutant strains;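 first replicate; 0 = DMSO median and -100 = no signal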
* = called active by the depositor. A portion of the library (hit frequency here may not be typical).

SMILES | MLL AF4-AF9 inh | rRNA inh HTS | rRNA inh HTS OD600 | rRNA inh HTS RFP
CCCNC(=O)C1(C)CCCN(C(=O)/C=C/c2ccccc2)C1 (configuration not stated) | 1.8 | 3 | 4 | 1.0
O=C(Nc1cccc(Cl)c1)N[C@@H]1CC[C@H](CCNC(=O)C2CCCC2)O[C@@H]1CO | -1.9 | -2 | -1 | -0.1
C[C@H](CO)N1C[C@H](C)[C@H](CN(C)S(=O)(=O)c2cn(C)cn2)Oc2c(NS(=O)(=O)c3cn(C)cn3)cccc2C1=O | 0.8 | -2 | -7 | -3.6
O=C(Nc1ccccc1)N[C@@H]1CC[C@H](CCNS(=O)(=O)c2cccc(F)c2)O[C@@H]1CO | 0.6 | -3 | -7 | -1.3
O=C(NCCc1ccccc1)[C@@H]1[C@@H](CO)[C@@H]2Cn3c(cccc3=O)[C@H]1N2C(=O)C1CCC1 | -1.4 | 2 | 13 | -0.5
C[C@H]1CN([C@@H](C)CO)S(=O)(=O)c2ccc(C#CC3CCCC3)cc2O[C@H]1CN(C)C(=O)Cc1ccncc1 | 9.3 | 2 | -8 | 17
CC(C)CC#Cc1ccc([C@@H]2[C@H]3CN(C(=O)CN4CCOCC4)CC(=O)N3[C@H]2CO)cc1 | -1.2 | 2 | -4 | 3.4
C[C@H]1CN([C@@H](C)CO)C(=O)Cc2cc(NC(=O)Cc3cn(C)c4ccccc34)ccc2O[C@@H]1CN(C)C | -1.2 | 5 | 6 | 1.2
O=C(C[C@H]1C=C[C@@H](NC(=O)c2ccncc2)[C@@H](CO)O1)Nc1ccc(-c2ccccc2)cc1 | -3.4 | -6 | -11 | -1.5
C[C@@H]1CN([C@@H](C)CO)C(=O)Cc2cc(NC(=O)C3CCCCC3)ccc2O[C@H]1CN(C)S(=O)(=O)c1cccs1 | -2.3 | -3 | -11 | -1.6
CCC(=O)N1[C@@H](CO)[C@@H](c2ccccc2)C12CN(Cc1cccnc1)C2 | -0.8 | 8 | 8 | -4.2
CCOC1=C2CN(S(=O)(=O)c3ccc(C)cc3)C(c3ccc(CC)cc3)CC2n2c(=O)n(-c3ccccc3)c(=O)n2C1 (configuration not stated) | -2.3 | 3 | 15 | -1.7
C[C@@H]1CN([C@@H](C)CO)S(=O)(=O)c2ccc(Br)cc2O[C@H]1CN(C)Cc1cncnc1 | -0.2 | -2 | -7 | -0.5
COc1ccc(NC(=O)Nc2ccc3c(c2)CC(=O)N([C@@H](C)CO)C[C@@H](C)[C@@H](CN(C)S(=O)(=O)c2ccc(OC)cc2)O3)cc1 | 5.0 | -1 | -4 | 0.9
C[C@H]1CN([C@@H](C)CO)C(=O)Cc2cc(NC(=O)CCCCCC(=O)Nc3ccccc3N)ccc2O[C@@H]1CN(C)C(=O)Nc1ccc(F)cc1 | -0.6 | 5 | 11 | -1.1
CCN(C[C@@H]1[C@@H](c2ccc(-c3ccccc3)cc2)[C@H](CO)N1C(C)=O)C(C)=O | 2.5 | -2 | 5 | 2.4
C[C@@H]1CN([C@@H](C)CO)C(=O)Cc2cc(NC(=O)Cn3cnnn3)ccc2O[C@@H]1CN(C)C(=O)Nc1ccc(C(F)(F)F)cc1 | -0.9 | 1 | 4 | -0.9
CO[C@@H]1CN(C)C(=O)c2ccc(NC(=O)CC(F)(F)F)cc2OC[C@H](C)N(C(C)=O)C[C@H]1C | -7.5 | 1 | -1 | 2.4
COCC(=O)N1CCC2(CC1)CN(S(C)(=O)=O)[C@H](CO)c1c2c2ccc(OC)cc2n1C | -3.3 | 1 | 8 | -1.7
C[C@H](CO)N1C[C@H](C)[C@H](CN(C)C(=O)C2CCC2)Oc2ncc(C#CC(C)(C)O)cc2C1=O | -2.4 | 1 | 5 | -2.1
CO[C@H]1CN(C)C(=O)c2ccc(NC(=O)C3CCCC3)cc2OC[C@@H](C)N(CC2CC2)C[C@@H]1C | 0.6 | 0 | -7 | -1.9
O=C(Nc1ccc(C(=O)N2CCCC2)cc1)C1CCC1 | -1.3 | 20 | 6 | -0.9
COc1ccc2c3c(n(C)c2c1)[C@@H](CO)N(CC1CC1)CC31CN(C(=O)CN2CCOCC2)C1 | 1.8 | 2 | -1 | -1.1
CCc1nc2c(OCc3ccc(Cl)cc3Cl)cccn2c1N(C)C(=O)C(C)C | 4.0 | -21 | -49 | 2.4
O=C(Nc1ccccc1)N1CC(=O)N2[C@H](C1)[C@H](c1ccc(C#CC3CCCC3)cc1)[C@@H]2CO | 9.0 | -3 | -25 | -1.0

Other results
SMILES | MLL AF4-AF9 inh | rRNA inh HTS | rRNA inh HTS OD600 | rRNA inh HTS RFP
C[C@@H]1CN([C@@H](C)CO)C(=O)Cc2cc(NC(=O)Nc3ccc(F)cc3)ccc2O[C@H]1CN(C)Cc1ccc(Cl)c(Cl)c1 | 0.2 | 2 | 0 | 2.9
CC=Cc1ccc2n(c1=O)C[C@H]1[C@H](CO)[C@@H](C(=O)N[C@H](C)c3ccccc3)[C@@H]2N1Cc1ccncc1 (mixture of isomers) | -1.8 | 0 | 0 | 2.5
COc1ccc(-c2ccc3c(c2)O[C@H](CN(C)CC2CCOCC2)[C@@H](C)CN([C@@H](C)CO)S3(=O)=O)cc1 | 5.2 | -14 | -43 | 28
CCOC1=C2CN(S(=O)(=O)c3ccc(C)cc3)[C@H](c3ccccc3)C[C@@H]2N(S(=O)(=O)c2ccccc2)[C@H](c2ccccc2)C1 | -3.0 | 9 | 15 | -2.8
COc1ccc(Cl)c(-c2cc(C(=O)NCc3ccco3)[nH]n2)c1 | 2.8 | 1 | -6 | 1.0
CO[C@@H]1CN(C)C(=O)c2cc(NC(=O)c3ccccc3)ccc2OC[C@H](C)N(C(=O)C2CC2)C[C@@H]1C | 2.0 | -4 | -2 | -0.1
CCCNC(=O)Nc1ccc2c(c1)C(=O)N(C)C[C@@H](OC)[C@H](C)CN(Cc1ccc(-c3ccccn3)cc1)[C@H](C)CO2 | 5.9 | -1 | -10 | 8.8
CCc1ccc(/C=C2/SC(=S)N(CCCC(=O)Nc3cccc(C(=O)O)c3)C2=O)cc1 | 2.3 | -4 | -7 | -0.1
COC(=O)[C@]12CCCCC=C1N(CCC1=CCCCC1)C(=O)[C@H](CC(=O)N1CCC(c3ccccc3)CC1)C2 | 4.3 | 14 | 10 | 2.3
CCN(CC)S(=O)(=O)c1ccc(N2CCOCC2)c(NC(=O)CN2C(=O)NC3(CCCC3)C2=O)c1 | 1.5 | 15 | 12 | 3.1
CCC(=O)Nc1ccc2c(c1)C(=O)N(C)C[C@@H](OC)[C@H](C)CN(CC1CCCCC1)[C@@H](C)CO2 | 2.6 | -5 | -26 | 26
COc1ccc(NC(=O)Nc2ccc3c(c2)C(=O)N([C@H](C)CO)C[C@H](C)[C@H](CN(C)Cc2ccc(C(=O)Nc4ccccc4N)cc2)OCCCC[C@@H](C)O3)cc1 | -1.8 | 2 | -2 | -3.9
C=CCNc1ncnc2c1ncn2[C@H]1CN(Cc2ccccc2)C[C@@H](COC(C)=O)O1 | 2.3 | -1 | -2 | -1.6
CCCCCCN1CCN(C2CN(Cc3cn(Cc4ccc(C)cc4)nn3)S(=O)(=O)C2)CC1 (configuration not stated) | -6.0 | 0 | -4 | 11
CCCNC(=O)N1CC2(CN(Cc3ccccn3)C2)c2c(n(C)c3cc(OC)ccc23)[C@@H]1CO | 16 | 1 | 5 | 2.0
O=C(C[C@H]1CC[C@H]2[C@@H](COC[C@H](O)CN2Cc2cccc(F)c2)O1)NCc1ccncc1 | -0.1 | 1 | 0 | -4.6
CCNC(=O)Nc1ccc2c(c1)C(=O)N(C)[C@@H]1CC[C@@H](CC(=O)NCc3ccc(F)cc3)O[C@@H]1CO2 | -2.0 | 1 | 9 | -0.3
C[C@@H]1CN([C@H](C)CO)C(=O)Cc2cc(NC(=O)Cn3cnnn3)ccc2O[C@H]1CN(C)C(=O)Nc1ccc2c(c1)OCO2 | 0.3 | -1 | 6 | -2.0
O=C(C[C@H]1C[C@@H]2c3cc(NC(=O)C4CCOCC4)ccc3O[C@@H]2[C@@H](CO)O1)NCc1ccccc1 | -1.3 | -3 | 1 | -1.0
C[C@@H]1CCCCO[C@@H](CN(C)CC2CCCCC2)[C@H](C)CN([C@@H](C)CO)C(=O)c2cc(NC(=O)CCCCCC(=O)Nc3ccccc3N)ccc2O1 | -3.0 | 0 | -13 | 3.2
COc1ccccc1-c1ccccc1[C@H]1[C@@H](CO)N(C(=O)C2CCOCC2)[C@H]1C#N | -2.5 | -1 | 2 | 0.3
Cc1ccc(S(=O)(=O)N(C)C[C@@H]2Oc3ccc(NC(=O)CCCCCC(=O)Nc4ccccc4N)cc3CC(=O)N([C@H](C)CO)C[C@@H]2C)cc1 | 2.6 | -3 | 0 | 2.2
C[C@H](CO)N1C[C@H](C)[C@H](CN(C)C(=O)Nc2cccc(F)c2)Oc2ncc(C3=CCCCC3)cc2C1=O | 5.5 | -1 | -20 | 9.0
C[C@H](CO)N1C[C@H](C)[C@@H](CN(C)CC2CCCC2)Oc2ncc(-c3ccc(F)cc3)cc2C1=O | -8.0 | 9 | 6 | -0.8
CO[C@H]1CN(C)C(=O)c2cc(NC(=O)C3CCOCC3)ccc2OC[C@@H](C)N(C(C)=O)C[C@@H]1C | -2.1 | 3 | 3 | -2.1

Looked up by compound from the entries so far (four):
SMILES | MLL AF4-AF9 inh | rRNA inh HTS | rRNA inh HTS OD600 | rRNA inh HTS RFP
O=C(C[C@H]1C[C@@H]2c3cc(NC(=O)C4CCOCC4)ccc3O[C@@H]2[C@@H](CO)O1)NCc1ccccc1 | -1.3 | -3 | 1 | -1.0
CCCNC(=O)Nc1ccc2c(c1)C(=O)N(C)C[C@@H](OC)[C@H](C)CN(Cc1ccc(-c3ccccn3)cc1)[C@H](C)CO2 | 5.9 | -1 | -10 | 8.8
COC(=O)[C@]12CCCCC=C1N(CCC1=CCCCC1)C(=O)[C@H](CC(=O)N1CCC(c3ccccc3)CC1)C2 | 4.3 | 14 | 10 | 2.3
COc1ccc(Cl)c(-c2cc(C(=O)NCc3ccco3)[nH]n2)c1 | 2.8 | 1 | -6 | 1.0

(more compounds)
SMILES | MLL AF4-AF9 inh | rRNA inh HTS | rRNA inh HTS OD600 | rRNA inh HTS RFP
COc1ccc2c3c([nH]c2c1)[C@@H](CO)N(C(=O)c1cnccn1)CC31CN(C(=O)c2cnccn2)C1 | -1.0 | 1 | 1 | -0.3
COc1ccc(S(=O)(=O)Nc2ccc3c(c2)C(=O)N([C@H](C)CO)C[C@@H](C)[C@H](CN(C)S(=O)(=O)c2cn(C)cn2)O3)cc1 | -2.4 | 3 | 10 | -0.3
O=C(NCCc1ccccc1)[C@@H]1[C@@H](CO)[C@@H]2Cn3c(cccc3=O)[C@H]1N2Cc1ccccn1 | -2.3 | 2 | 4 | -1.0
Cc1noc(C)c1S(=O)(=O)N(C)C[C@H]1Oc2ccc(NC(=O)NC3CCCCC3)cc2CC(=O)N([C@H](C)CO)C[C@H]1C | -0.7 | 1 | -2 | -1.5
C[C@H](CO)N1C[C@H](C)[C@@H](CN(C)CC2CCCCC2)Oc2ccc(NC(=O)C3CCCCC3)cc2C1=O | -0.6 | 2 | -3 | -0.6
CNC[C@H]1Oc2ccc(NC(=O)C3CC3)cc2CC(=O)N([C@@H](C)CO)C[C@@H]1C | -2.7 | 3 | 4 | -1.2

Not a retest: an excerpt of the list.
SMILES | MLL AF4-AF9 inh | rRNA inh HTS | rRNA inh HTS OD600 | rRNA inh HTS RFP
CO[C@H]1CN(C)C(=O)c2cc(NC(=O)C3CCOCC3)ccc2OC[C@@H](C)N(C(C)=O)C[C@@H]1C | -2.1 | 3 | 3 | -2.1
COc1ccc2c3c([nH]c2c1)[C@@H](CO)N(C(=O)c1cnccn1)CC31CN(C(=O)c2cnccn2)C1 | -1.0 | 1 | 1 | -0.3
COc1ccc(S(=O)(=O)Nc2ccc3c(c2)C(=O)N([C@H](C)CO)C[C@@H](C)[C@H](CN(C)S(=O)(=O)c2cn(C)cn2)O3)cc1 | -2.4 | 3 | 10 | -0.3
O=C(NCCc1ccccc1)[C@@H]1[C@@H](CO)[C@@H]2Cn3c(cccc3=O)[C@H]1N2Cc1ccccn1 | -2.3 | 2 | 4 | -1.0

Compound activity deposited in PubChem BioAssay by Broad Institute.
